HPGD block – HPGD (human) dehydrogenase inhibition; Potency, µM, inactives show at the highest dose activity change, negative = inhibition, most hits filed as inhibitors; actives 4.3% (n = 150,000); purified HPGD, NADH fluorescence kinetic, PGE2 substrate; active = well fitted inhibition curve with a large enough effect (not every such curve was filed as active); inconclusive = small, poorly fitted or top-dose-only effect, or another doubt; inactive = no such curve, though single readings can be large or run the other way;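 further: top concentration of the series not given in the record; plate controls included wells without enzyme; inactives centre near -10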
Target sequence (P15428 whole entry, looked up): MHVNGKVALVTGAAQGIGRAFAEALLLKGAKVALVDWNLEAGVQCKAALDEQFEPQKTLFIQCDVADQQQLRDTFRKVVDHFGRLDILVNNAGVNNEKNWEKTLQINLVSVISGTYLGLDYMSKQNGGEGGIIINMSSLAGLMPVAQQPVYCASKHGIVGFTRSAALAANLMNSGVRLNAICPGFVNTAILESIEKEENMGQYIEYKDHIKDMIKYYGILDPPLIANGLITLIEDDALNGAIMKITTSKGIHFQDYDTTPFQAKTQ
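20 nM HPGD preincubated 15 min at room temperature with compound in 50 mM Tris-HCl pH 8, 0.01% Tween 20. Started with 1 mM NAD+ and 30 uM prostaglandin E2; NADH fluorescence (360/450 nm) read 5 times over 30-s intervals, last minus first.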
Active calls of the source: *; ? = inconclusive; & = joins results of further samples; [ ] = remark or other dose. On the % scale 0 is the no-effect control and ±100 the full control effect; potency means the concentration at half of the fitted maximal effect. A portion of the library; rates above refer to the full screens.

no.	smiles	HPGD block
1	COc1ccccc1CC(NC(C)=O)C(=O)NC1CCN(C(=O)c2ccc([N+](=O)[O-])cc2)CC1 (stereo not given)	-1%
2	O=C(c1cccc([N+](=O)[O-])c1)N1CCN(c2ccccn2)CC1	-10%
3	COc1ccc(/C=N/NC(=O)c2cccc(Br)c2)cc1Cn1cc(Cl)cn1	?
4	CCOC(=O)c1cc2occc2n1CC(=O)N1CCN(C(=O)c2ccco2)CC1	-9%
5	CCC1OC23CCCCC2C(C#N)(C(=N)O3)C1(C#N)C#N (stereo not given)	?
6	Cn1c(SCC(=O)N2CCOCC2)nnc1-c1ccc(Cl)cc1Cl	-2%
7	O=C(NCSc1ccnc(SCNC(=O)c2ccc(F)cc2)n1)c1ccc(F)cc1	22µM*
8	CN(NC(=O)NN)c1ncc(C(F)(F)F)cc1Cl	-2%
9	COc1ccc(NC(=O)CCN2CCCCC2)cc1	-12%
10	O=C(CN(C1CC1)S(=O)(=O)c1ccc(S(=O)(=O)NC2CCCCC2)cc1)Nc1ccccc1	-12%
11	Cc1cc(Cl)ccc1OC(C)C(=O)Nc1ccc([N+](=O)[O-])cn1 (stereo not given)	-16%
12	COc1cc(NC(=O)Nc2cccc(C(C)=O)c2)cc(OC)c1OC	-3%
13	O=C(COc1cccc(NC(=O)c2ccco2)c1)c1ccccc1	-19%
14	CC(=O)N1CCN(C2c3cccc4cccc(c34)C2NS(=O)(=O)c2ccccc2)CC1 (stereo not given)	-3%
15	CCNC(=S)NCc1ccco1	-6%
16	O=C(O)CCCC(=O)Nc1ccc(Sc2ccc([N+](=O)[O-])cc2)cc1	?
17	NC(=O)c1ncn([C@@H]2O[C@H](CO)[C@@H](O)[C@H]2O)c1O	-15%&-1%
18	O=C(Nc1ccc2nc3ccccc3nc2c1)c1ccc(Br)cc1	-10%
19	O=C(O)CC(NS(=O)(=O)c1ccc(Br)cc1)c1ccco1 (stereo not given)	-26%
20	CC(C)=NNC(=O)CN1C(=O)NC2NC(=O)NC21 (stereo not given)	-4%
21	Cc1cc(C(F)(F)F)n2nc(C)c(-c3ccc(Cl)cc3)c2n1	0%
22	CCOC(=O)CCSCC(=O)Nc1cc(C)on1	-10%
23	O=c1c2ccccc2nc(SCc2ccccc2F)n1C1CCCC1	-8%
24	O=C(CCc1[nH]c2ccccc2c1Sc1ccccc1)NCCO	-26%
25	CCOC(=O)c1nn(-c2ccc(C)cc2)c(=O)c2c(N)scc12	-16%
26	COc1ccc(C2N=C(N)N=C(N)N2c2ccc(C)cc2)cc1 (stereo not given)	0%
27	CCOC(=O)c1cc(-c2ccc(OC)cc2F)nc2c1c(C)nn2CCC#N	?
28	COc1ccc(OC)c(N(CC(=O)NCc2cccnc2)S(C)(=O)=O)c1	-11%
29	CNC(=O)COC(=O)c1nc(-n2nc(C)cc2C)ccc1Cl	0%
30	COC(=O)c1c(S(=O)(=O)NCc2ccccc2)sc(C(=O)O)c1C	-7%
31	COc1cc(C)c(S(=O)(=O)NC2CC(C)(C)NC(C)(C)C2)cc1C	-11%
32	COc1ccc(C)cc1S(=O)(=O)N(C)CC(N)=O	-8%
33	CSc1cccc(NC(=O)c2ccc(Cl)nc2)c1	-12%
34	Cc1cc(NC(=O)Cc2cccs2)nn1CC(=O)NCc1ccco1	1%
35	COC(=O)c1cc(CN2CCN(c3ccccc3C)CC2)ccc1O	-6%
36	CCCCC(=O)Nc1ccc(C(=O)NNC(=O)c2ccco2)cc1	-6%
37	COc1ccccc1N1CCN(C(=O)c2cnn3cccnc23)CC1	0%
38	CC(=O)Nc1nc(C)nc(-c2ccccc2)c1C(C)=O	-14%
39	CCOC(=O)c1sc(NC(=O)CSc2nccc(C)n2)c(C#N)c1C	-8%
40	Cc1ccc(NC(=O)CSCC(=O)O)c(C)c1	-5%
41	CCn1c(SCC(=O)c2ccccc2)nc2c(c1=O)SC(C)C2 (stereo not given)	-23%
42	COCCN1C(=O)c2ccccc2C(C(=O)N2CCN(c3ccccn3)CC2)C1c1ccc(F)cc1 (stereo not given)	-23%
43	O=C1CCCN1CCC1CCN(C(=S)Nc2ccc(F)cc2)CC1	-9%
44	O=C(NN=C1CCCCCCC1)C(=O)NC1CCCCC1	4%
45	Cc1nc2ccccn2c1C(=O)N/N=C/c1cc(C)n(-c2ccc(Cl)cc2)c1C	?
46	CCOc1ccccc1N1CCN(C/C=C/c2ccc(N(C)C)cc2)CC1	-28%
47	Cc1c(C#N)c(NC(=O)c2ccccc2)n(Cc2ccccc2)c1C	-13%
48	O=[n+]1cc(-c2ccc(Cl)cc2)n([O-])c2c1CCCCC2	-12%
49	Cc1nn(C)cc1/C=N\NC(=O)c1ccc2c(c1)c(C)c(C)n2Cc1ccccc1	?
50	CCOC(=O)c1cn(-c2nc(-c3ccc(Cl)c(Cl)c3)cs2)c2c(F)c(N3CCOCC3)c(F)cc2c1=O	-22%
51	COCCCNc1nc(SCc2ccccc2)nc2sc3c(c12)CCC3	-12%
52	COc1ccc(N2CCN(S(=O)(=O)c3ccc(C(=O)NC4CCCC4)cc3)CC2)cc1	-8%
53	O=C(CSc1nc(-c2ccc(F)cc2)cc(C(F)(F)F)n1)Nc1ccc2c(c1)OCO2	-8%
54	COc1cccc(N2CCN(c3ncnc4c3cnn4-c3ccc(C)cc3C)CC2)c1	?
55	COCCn1c(C)cc(C(=O)CN2C(=O)NC3(CCCCCCC3)C2=O)c1C	-7%
56	CCOC(=O)c1sc2c(c1C)C(c1cccs1)C1=C(CCCC1=O)N2 (stereo not given)	?
57	COc1cccc(OCCSc2nnc3sc4ccccc4n23)c1	?
58	N#CCO/N=C(\c1ccccc1)c1ccncc1	?
59	CCNC(=O)O/N=C(\C)c1sc(-c2ccc(Cl)cc2)nc1C	-19%
60	CCC(C)[C@H](NC(=O)OC(C)(C)C)C(=O)N/N=C/c1ccc2cc(OC)ccc2n1 (stereo not given in full)	?

(continued)
no.	smiles	HPGD block
61	CC1CCCC(C)N1CCCNC(=O)c1cc2c(=O)n(C)c3ccccc3c2n1C (stereo not given)	-29%
62	Cc1cc(C(=O)OCC(=O)N2CC(C)CC(C)C2)c(C)o1 (stereo not given)	-8%
63	COc1cccc(NC(=O)c2ccncc2)c1	-6%
64	COc1cc(-c2cn(S(=O)(=O)c3cccc4nsnc34)nc2N)cc(OC)c1OC	-11%
65	Cc1c(N2C(=O)/C(=C/c3ccccc3)SC2=S)c(=O)n(-c2ccccc2)n1C	-8%
66	O=C(O)c1ccc(SSc2ccc(C(=O)O)cn2)nc1	4µM*
67	CCOC(=O)Cc1csc(NC(=O)CN(C)S(=O)(=O)c2ccc3c(c2)CCC(=O)N3)n1	-13%
68	Cc1cccc(NC(=O)CN2C(=O)CNC2=O)c1	-7%
69	COc1ccccc1CN1C(=O)c2ccncc2C1=O	-7%
70	Cc1c(C(=O)C(C)C)n(C)c2ccccc12	-9%
71	O=C(NCc1ccc2c(c1)OCO2)c1c(F)c(F)c(F)c(F)c1F	-6%
72	O=C(NCCc1ccccc1)c1ccc(Br)o1	?
73	N/C(Cc1ccc(Cl)cc1)=N\OC(=O)c1ccc2ccccc2c1	-3%
74	O=C(CSCC(=O)N1CCN(c2ccccc2)CC1)Nc1nc(-c2ccc(Cl)s2)cs1	-18%
75	COc1cccc2cc(C(=O)N(C)C3CCN(C)CC3)c(=O)oc12	-13%
76	CCCCC/C=C/C=C/C=O	-8%
77	Cc1ccc(S(=O)(=O)NCc2n[nH]c(=S)n2C)cc1	-6%
78	COc1ccc(/C=N/n2c(SC)nnc(C(C)(C)C)c2=O)cc1	-9%
79	O=C(Cn1nnc(-c2ccc(Cl)cc2)n1)NC1CCN(Cc2ccccc2)CC1	-7%
80	O=C(CSc1nnc(SCc2ccccc2Cl)s1)N/N=C/c1c[nH]c2ccccc12	-8%
81	COCCCNC(=O)/C(C#N)=c1\s/c(=C\c2ccccc2OC(F)F)c(=O)n1CCCOC	?
82	COC(=O)C1NN=C(C(=O)c2ccc(Br)cc2)C1c1cccc(Br)c1 (stereo not given)	-15%
83	COCCOC(=O)C1=C(N)OC2=C(C(=O)CCC2)C1c1cccnc1 (stereo not given)	-7%
84	O=C(Nc1ccc(F)cc1)c1cc(S(=O)(=O)N2CCCCC2)cs1	-6%
85	O=C(CN1C(=O)c2ccccc2C1=O)NCc1ccccn1	1%
86	Cc1ccc(N=Cc2cc(C)n(C3CCCC3)c2C)cc1	-19%
87	O=c1[nH]c(-c2cccnc2)nc2ccccc12	18µM*
88	Cc1ccc(-c2nn(CCC(=O)O)cc2CCC(=O)O)cc1	-3%
89	COc1ccc2nc3sc(C(=O)NCCN4CCc5ccccc5C4)cc3cc2c1	-23%
90	NCC(=O)Nc1ccc(Cl)cc1C(=O)c1ccc[nH]1	-14%

Fetched one by one from the entries so far (2):
no.	smiles	HPGD block
76	CCCCC/C=C/C=C/C=O	-8%
80	O=C(CSc1nnc(SCc2ccccc2Cl)s1)N/N=C/c1c[nH]c2ccccc12	-8%

More compounds follow.
no.	smiles	HPGD block
91	CN(C)C(=O)CN1C(=O)C2CC=C(Cl)CC2C1=O (stereo not given)	-10%
92	CN1C(=S)SC(N(O)C(=O)Nc2ccc(Cl)c(Cl)c2)C1(C)C (stereo not given)	-7%
93	C=CCNc1nc(SC)nc2ccsc12	-9%
94	COC(=O)CN(C#N)c1nc(SC)nc(N(C)C)n1	-14%
95	C=CCN1C(=O)/C(=C2/Sc3ccccc3N2C)SC1=Nc1ccccc1C	-7%
96	Cc1nn(Cc2ccccc2)c2sc(C(=O)N3CCN(Cc4ccc5c(c4)OCO5)CC3)cc12	-3%
97	CCCSc1cc(=O)n(-c2ccccc2)nc1C(=O)OCC	-12%
98	C=CCNC(=O)c1ccc(-c2nc(-c3ccc(Cl)c(Cl)c3)cs2)cc1	-23%
99	O=C(COC(=O)CCc1nc2ccccc2s1)Nc1cccc(S(=O)(=O)N2CCOCC2)c1	-8%
100	NCCCNCCSP(=O)(O)O	-9%
101	CC(C)c1ccc(N=c2c([N+](=O)[O-])nn(-c3ccc4c(c3)OCCO4)n2O)cc1	-12%
102	COC(=O)c1sccc1NC(=O)c1sccc1C	?
103	O=C(CN1CCN(C2CCCCC2)CC1)NCCC1=CCCCC1	-5%
104	O=C(CCCOc1ccc(Cl)cc1Cl)Nc1ccncc1	14µM*
105	Cc1ccc(C(=O)Nc2sc3c(c2C#N)CCCCC3)cc1C	?
106	O=C(NCCC1=CCCCC1)c1ccc(Br)o1	-17%
107	COC(=O)Cc1c(C)c2ccc(OC(=O)c3ccco3)cc2oc1=O	120%[activator]
108	CCOC(=O)c1c(C)[nH]c(NC(=O)N2CCOCC2)c1C	-10%
109	CCNS(=O)(=O)c1ccc(NC(=O)Nc2cccc(OC)c2)cc1	-15%
110	Cc1cc2ncn(CC(=O)O)c2cc1C	-10%
111	O=C(Nc1ccc(O)cc1)c1cc2n(n1)C(C(F)(F)F)CC(c1ccco1)N2 (stereo not given)	-13%
112	Cc1ccccc1NC(=O)c1c(Cl)nc(C)c(Cl)c1C	-6%
113	COCCNC(=O)COc1cc(=O)n(C)c2ccccc12	-13%
114	c1ccc(SCc2nc3ccccc3[nH]2)nc1	-22%
115	COc1cccc(CNC(=O)CCCNS(=O)(=O)c2cccs2)c1	-2%
116	CCCC(=O)NCCSC	-25%
117	COC(=O)c1nn(-c2ccccc2)c(=O)cc1Oc1ccccc1	-3%
118	O=C(CN1NS(=O)(=O)c2ccccc2C1=O)Nc1ccccc1OC(F)F	-8%
119	O=C(CN1N=C(c2ccccc2)CCC1=O)NCc1ccco1	-10%
120	Cc1nc2nc[nH]n2c(=O)c1CCC(C)C	-28%
121	CC1Cn2c(nc3c2c(=O)[nH]c(=O)n3C)O1 (stereo not given)	-9%
122	CN(C)c1c(N)[nH]c2c(c1=O)c(=O)n(C)c(=O)n2C	-3%
123	Cc1ccc(S(=O)(=O)NCCCCCC(N)=O)cc1	-1%
124	Cc1cc(OCc2nc(-c3ccc(NC(=O)c4cccnc4)cc3)no2)ccc1Cl	-18%
125	Cc1cc(C)c(S(=O)(=O)/N=C2\C=CC(=O)C(Cl)=C2)c(C)c1	20µM*
126	COc1ccc(-c2[nH]n(-c3ccc([N+](=O)[O-])cc3)c(=O)c2C=NCc2ccncc2)cc1	-15%
127	CNCCC(Oc1ccccc1OC)c1ccccc1 (stereo not given)	-9%
128	O=S1(=O)CC(O)C(N2CCC(c3ccccc3)CC2)C1 (stereo not given)	-10%
129	O=C(COC(=O)c1ccc(S(=O)(=O)NCc2ccco2)cc1)Nc1ccccc1OC(F)F	-19%
130	CCOc1ccccc1N/C=C(\C#N)c1nc2ccccc2n1C	-17%
131	O=C(COc1nc2ccccc2nc1N1CCOCC1)NCC(F)(F)F	-10%
132	Cc1oc(-c2ccccc2F)nc1CN1CCC(C(=O)NCc2cccs2)CC1	-11%
133	CN1/C(=C\C(=O)CN2C(=O)NC3(CCCCCC3)C2=O)C(C)(C)c2ccccc21	-17%
134	COc1cc2c(=O)n(Cc3ccco3)c(=O)n(CC(=O)c3cccc(Br)c3)c2cc1OC	-6%
135	CCN(CC)S(=O)(=O)c1ccc2c(c1)nc(SCc1nc3ccsc3c(=O)[nH]1)n2CC	?
136	COC(=O)COc1ccc2occ(C(C)=O)c2c1	-10%
137	C=CCn1c(=O)c2ccccc2n2c(SCc3nnc(-c4ccccc4Br)o3)nnc12	-20%
138	CCOc1ccc2c(c1)nc(SCC(=O)c1cccs1)n2C	-10%
139	O=C(NC(=S)Nc1ccc(S(=O)(=O)Nc2nccs2)cc1)c1ccccc1	-6%
140	CCOc1ccc2nc(S(N)(=O)=O)sc2c1	-24%&-7%
141	Cc1c(Cl)cccc1NC(=S)N1CCN(Cc2ccccc2)CC1	-14%
142	COc1cc(CNC2CCCC2)cc(OC)c1OC	-1%
143	O=C1c2ccccc2C(Nc2ccc(S(=O)(=O)N3CCOCC3)cc2)N1c1ccccn1 (stereo not given)	-6%
